MARV entry inh: blocks Marburg virus binding to or entry into cells; Marburg virus pseudotyped entry inhibition, cell reporter; control for the full effect not named in the record; about a third of the inactives were read at about 46 µM; hit rate 1.8% among 300,000; Potency, µM (series often up to 37.8 µM), for the others: at the top dose activity change, negative = inhibition, usual class: inhibitors; active = well fitted inhibition curve with a large enough effect; inconclusive = small, poorly fitted or top-dose-only effect, or effect the other way; inactive = flat fitted curve, though single readings scatter; tested in HEK293 cells; about a fifth of its hits are not listed in these tables; note: % is set by controls: 0 for no effect and ±100 for the full control effect; luciferase read-out
Lassa entry inh: Lassa virus entry inhibition; Lassa virus pseudotype entry inhibition, cell reporter; control for the full effect not named in the record; Potency, µM (titrated, usually from 37.9 µM), for the others: top-dose activity change, negative = inhibition, actives largely listed as inhibitors; hit rate 1.2% among 300,000; AID 540256; active means well fitted inhibition curve with a large enough effect; inconclusive means small, poorly fitted or top-dose-only effect, or effect the other way; inactive means flat fitted curve, though single readings scatter; tested in HEK293 cells; note: % is set by controls: 0 for no effect and ±100 for the full control effect; nearly all actives have a fitted effect of over 50% in size; luciferase read-out
RE007 growth inh: less growth of the S. pombe RE007 Vpr strain; S. pombe RE007 Vpr strain, BacTiter-Glo ATP luminescence, 24 h; control for the full effect not named in the record; hit rate 0.21% among 360,000; Potency, µM (highest dose often 92.2 µM), for inactives: at the highest dose activity change, negative = less growth; active = well fitted falling curve with a large enough effect; inconclusive = small, poorly fitted or top-dose-only effect; inactive = no such curve, though single readings can be large or run the other way;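 note: % is set by controls: 0 for no effect and ±100 for the full control effect; nearly all actives have a fitted effect of over 50% in size; the assay follows cell death caused by Vpr and the record does not say whether a fall means rescue or toxicity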
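Fission yeast RE007 carrying one integrated HIV-1 vpr copy, seeded at OD 0.01 in PMG+AL medium with 23 nL pinned compound. Grown 24 h at 30 degrees; viability read by BacTiter-Glo luminescence after 5 min.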
2A StopGo: FMDV 2A StopGo reporter, luciferase signal. human cells with a luciferase reporter of 2A StopGo recoding; control for the full effect not named in the record. Potency, µM (series often up to 57.9 µM), for the others: at the top dose signal change, negative = less light. hit rate 1.2% among 410,000. AID 1159524; active = well fitted falling curve with a large enough effect; inconclusive = small, poorly fitted or top-dose-only effect; inactive = no such curve, though single readings can be large or run the other way; tested in HEK293T cells; note: % is set by controls: 0 for no effect and ±100 for the full control effect; nearly all actives have a fitted effect of over 45% in size; luciferase light after 4 h
SARS PLpro yeast: blocks SARS-CoV papain-like protease in a yeast assay; S. cerevisiae expressing SARS-CoV PLpro, growth rescue; control for the full effect not named in the record; Potency, µM (series often up to 32.9 µM), for the others: at the highest dose activity, positive = growth rescue; hit rate 0.19% among 330,000; AID 485353; active means well fitted rising curve with a large enough effect; inconclusive means small, poorly fitted or top-dose-only effect; inactive means no such curve, though single readings can be large or run the other way; note: 0% is about no effect; nearly all actives have a fitted effect of over 55% in size; growth read by luminescence after 48 h
Cruzain Triton: cruzain (T. cruzi) inhibition with detergent | purified cruzain, Z-FR-AMC fluorescence, 0.01% Triton | Potency, µM, without a hit: max response, negative = inhibition, usual class: inhibitors | P25779 | hit rate 0.43% among 200,000;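 note: plate controls were neutral wells for no effect and buffer without enzyme for full effect; nearly all actives have a fitted effect of over 40% in size; top concentration of the series not given in the record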
Target sequence (P25779 123-467 limits assumed): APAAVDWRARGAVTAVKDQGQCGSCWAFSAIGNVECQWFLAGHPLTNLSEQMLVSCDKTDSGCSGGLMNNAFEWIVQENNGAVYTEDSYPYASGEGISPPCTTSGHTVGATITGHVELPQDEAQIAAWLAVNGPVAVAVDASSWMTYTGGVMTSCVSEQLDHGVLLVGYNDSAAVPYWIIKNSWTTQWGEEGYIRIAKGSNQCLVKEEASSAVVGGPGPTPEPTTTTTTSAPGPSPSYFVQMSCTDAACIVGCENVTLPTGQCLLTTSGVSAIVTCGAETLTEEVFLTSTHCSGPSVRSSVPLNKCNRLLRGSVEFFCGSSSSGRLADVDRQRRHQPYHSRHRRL
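Read-out: AMC fluorescence (360 nm excitation, 450 nm emission), four reads over 2 min, first-to-third difference used. Conditions: cruzain 1.5 nM, Z-FR-AMC 2 uM, pH 5.5 acetate, 5 mM DTT, 0.01% Triton X-100.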
NS1 function inh: blocks influenza NS1 protein function; S. cerevisiae slowed by influenza A NS1, growth recovery by OD600; Potency, µM (top dose mostly 46.1 µM), without a hit: at the highest dose activity, positive = more growth; hit rate 0.4% among 270,000; active means well fitted rising curve with a large enough effect; inconclusive means small, poorly fitted or top-dose-only effect; inactive means no such curve, though single readings can be large or run the other way; note: nearly all actives have a fitted effect of over 50% in size
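A cell-based growth assay was used: compounds that relieve NS1-induced slow growth of budding yeast raise OD600. Assay medium was yeast nitrogen base with ammonium sulphate and -URA supplement, pH 6.0, with 2% galactose.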
Cruzain inh noDet: cruzain (T. cruzi) inhibition without detergent | purified cruzain, Z-FR-AMC fluorescence, no detergent | Potency, µM, for inactives: max response, negative = inhibition, actives largely listed as inhibitors | hit rate 2.3% among 200,000 | AID 1476;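 note: plate controls were enzyme without inhibitor for no effect and buffer without enzyme for full effect; nearly all actives have a fitted effect of over 40% in size; top concentration of the series not given in the record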
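Detergent-free condition (0.00005% Triton X-100) in acetate buffer pH 5.5 with DTT. 1.5 nM enzyme and compound were pre-mixed 15 min, then 2 uM Z-FR-AMC substrate added; reaction progress from fluorescence change between first and third reads (60 s).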
An asterisk follows results filed as active; ? = inconclusive; . = not tested or not shown; & = joins results of further samples; [ ] = remark or other dose. Unless noted, calls come from the whole dose curve; as a rule, active = well fitted curve in the direction sought with a large enough effect; inconclusive = small, poorly fitted or top-dose-only effect, or another doubt; inactive = no such curve, though single readings can be large; an effect the other way counts as inactive or inconclusive. Potency is the fitted concentration of half-maximal effect.

item	compound	Lassa entry inh	RE007 growth inh	MARV entry inh	SARS PLpro yeast	2A StopGo	NS1 function inh	Cruzain Triton	Cruzain inh noDet
1	Cc1ccc(NC(=O)c2ccccc2O)cc1	?	32µM*	?	-85%	-25%	-81%	-3.7%	5%
2	COc1ccc(C(c2nnnn2C2CCCC2)N2CCc3ccccc3C2)cc1OC (stereo not given)	?	-16%	-13%	-7%	-5%	-32%	-7.1%	?
3	Fc1cccc(F)c1CN1CCN(c2ccc(Cl)cc2)CC1	24%	16%	5%	0%	-29%	-1%	.	.
4	Oc1cccc(C=Nc2cccc3ccccc23)c1O	?	-17%	?	-6%	6%	-1%	.	.
5	CC(C)Oc1ccc(C2CC(=O)N(c3ccccc3)C2=O)cc1 (stereo not given)	-3%	6%	-22%[46.1 µM]	7%	-26%	3%	1.8%	2%
6	CCCNc1nc2c(c(=O)[nH]c(=O)n2C)n1CCC(C)C	0%	-10%	14%	0%	-17%	-5%	-1.1%	-7%
7	O=c1[nH]c2ccccc2n1CCCN1CCN(C(c2ccccc2)c2ccccc2)CC1	18µM*	.	13µM*	4%	.	-14%&-3%	-7.0%&4.4%	1%&8%
8	Fc1ccccc1CCNCc1ccccc1	1%	.	?	?	2%	6%	-0.3%	3%
9	COc1cccc(-c2cn3c(n2)sc2cc(C(=O)NCCC4=CCCCC4)ccc23)c1	14%[46.1 µM]	.	.	.	4%	.	-2.3%	10%
10	O=C(NCC(F)(F)F)c1ccc(S(=O)(=O)Nc2ccccc2N2CCCC2)cc1	-16%[46.1 µM]	-5%	-30%[46.1 µM]	-2%	-7%	.	.	.
11	COc1ccc(C(=O)NCCNc2nc3ccc(C)cc3cc2C#N)cc1OC	.	3%	.	-1%	-16%	10%	.	.
12	CS(=O)(=O)N1CCN(c2ccccc2NC(=O)C(c2ccccc2)c2ccccc2)CC1	?	-15%	?	1%	-20%	-2%	-1.3%	?
13	CCc1cc(N2CCOCC2)cc2c1[nH]c1ccccc12	2%	-3%	-3%	1%	-3%	-9%	-8.5%	17%
14	O=C(CSc1nnc(-c2cccnc2)n1-c1ccccc1)NCc1ccc2c(c1)OCO2	5%	9%	12%[46.1 µM]	-2%	-13%	-9%	2.1%	8%
15	O=C(NC(=S)Nc1ccc(Br)cc1)C1CCC1	-27%[46.1 µM]	?	0%[46.1 µM]	-1%	31%[activator]	-3%	.	.
16	CCCCCc1nnc(NC(=O)Cn2cnc3ccccc3c2=O)s1	-1%	4%	-7%	-2%	-11%	-9%	-3.6%	-1%
17	O=C(c1ccc(Cl)cc1)N1CCCC(C(=O)N2CCc3ccccc3C2)C1 (stereo not given)	-5%	-4%	-3%	0%	-17%	-1%	.	.
18	Cc1onc(-c2c(Cl)cccc2Cl)c1C(=O)c1ccc(F)cc1	.	13%	.	-1%	-26%	-4%	.	.
19	COc1ccccc1NC(=O)COC(=O)C1CC2CCCC(C1)C2=O (stereo not given)	-2%[46.1 µM]	-8%	9%[46.1 µM]	2%	14%	.	.	.
20	CC(C)CCNC(=O)C(=O)NCC1OCCCN1S(=O)(=O)c1cccs1 (stereo not given)	.	-11%	.	2%	8%	11%	.	.
21	CCOC(=O)c1[nH]cnc1C(=O)NC(C)C	-13%	2%	?	9%	-11%	-1%	1.7%	11%
22	COc1ccc(C)cc1NC(=O)c1cc(S(=O)(=O)N2CCC3(CC2)OCCO3)ccc1F	?	-6%	-15%[46.1 µM]	-3%	-9%	17%	.	.
23	Clc1ccc(-c2nnc(-c3ccccc3)c(N3CCSCC3)n2)cc1	-1%	-13%	-29%	1%	-14%	-52%	-2.6%	-11%
24	COc1ccccc1N1CCN(Cc2ccccc2F)CC1	2%	2%	?	3%	-2%	5%	5.3%	0%
25	CSc1ccccc1C(=O)N1CCc2ccccc2C1	20%	-29%	?	0%	31%[activator]	.	.	.

7 structures from above, arranged by length of the SMILES, rising:
item	compound	Lassa entry inh	RE007 growth inh	MARV entry inh	SARS PLpro yeast	2A StopGo	NS1 function inh	Cruzain Triton	Cruzain inh noDet
21	CCOC(=O)c1[nH]cnc1C(=O)NC(C)C	-13%	2%	?	9%	-11%	-1%	1.7%	11%
15	O=C(NC(=S)Nc1ccc(Br)cc1)C1CCC1	-27%[46.1 µM]	?	0%[46.1 µM]	-1%	31%[activator]	-3%	.	.
3	Fc1cccc(F)c1CN1CCN(c2ccc(Cl)cc2)CC1	24%	16%	5%	0%	-29%	-1%	.	.
5	CC(C)Oc1ccc(C2CC(=O)N(c3ccccc3)C2=O)cc1 (stereo not given)	-3%	6%	-22%[46.1 µM]	7%	-26%	3%	1.8%	2%
23	Clc1ccc(-c2nnc(-c3ccccc3)c(N3CCSCC3)n2)cc1	-1%	-13%	-29%	1%	-14%	-52%	-2.6%	-11%
20	CC(C)CCNC(=O)C(=O)NCC1OCCCN1S(=O)(=O)c1cccs1 (stereo not given)	.	-11%	.	2%	8%	11%	.	.
14	O=C(CSc1nnc(-c2cccnc2)n1-c1ccccc1)NCc1ccc2c(c1)OCO2	5%	9%	12%[46.1 µM]	-2%	-13%	-9%	2.1%	8%

Following part.
item	compound	Lassa entry inh	RE007 growth inh	MARV entry inh	SARS PLpro yeast	2A StopGo	NS1 function inh	Cruzain Triton	Cruzain inh noDet
26	C/C(=N\S(=O)(=O)c1ccc(C)cc1)Nc1cc(C(C)C)c(O)cc1C	?	0%	?	-6%	-9%	0%	-4.6%	-5%
27	COc1ccccc1CNC(=O)c1ccc(N2CCCC2)c(NC(=O)NCc2ccccc2)c1	?	.	.	.	-30%	.	-3.6%	18%
28	COc1ccc(CN(C)C(c2ccccc2)c2nnnn2-c2ccccc2C)c(OC)c1C (stereo not given)	?	0%	?	-11%	-8%	-37%	-6.0%	7%
29	COc1ccccc1NC(=O)c1sc2ncn(CC(=O)Nc3ccccc3)c(=O)c2c1C	2%	-3%	?	2%	?	-9%	.	.
30	CC(C)N(C(=O)Cn1c(=O)oc2ccccc21)c1ccccc1	.	10%	.	0%	16%	13%	.	.
31	O=C(Cc1ccccc1)Nc1ccc(NC(=O)Cc2ccccc2)c(Cl)c1	6%	5%	-11%	3%	-7%	5%	.	.
32	COc1ccc(C(=O)/C=C/C(=O)N(CC(=O)NC2CCCCC2)CC2CCCO2)c(O)c1 (stereo not given)	.	-2%	.	-1%	7.9µM*	-5%	.	.
33	COc1cccc2cc(C(=O)N3CCN(C(=O)c4ccco4)CC3)c(=O)oc12	7%	-15%	0%	-3%	-8%	-5%	5.3%	10%
34	Cc1ccc(SCc2noc(C(=O)NC(C)C)c2C(=O)O)cc1C	.	-16%	.	-6%	0%	?	0.7%	8%
35	CCOC(=O)c1c(NC(=O)CSc2nnc(-c3cccnc3)o2)sc(C(C)=O)c1C	1%	-16%	17%	5%	?	-7%	0.7%	?
36	Cc1cc(NC(=O)CN2CCN(c3ccccc3O)CC2)no1	8%	0%	4%	2%	21%	1%	7.8%	7%
37	Cc1ccc(Cn2c(C(=O)O)c(CNCc3cccs3)c3ccc(C)cc32)cc1	1%[46.1 µM]	.	.	.	-22%	.	-5.5%	25%
38	CCOc1c2ccc(C(=O)NCc3ccc(OC(F)(F)F)cc3)cc2nn1C	.	5%	.	3%	-15%	-15%	-3.6%	28%
39	Cc1ccc(NC(=O)c2sc3nc[nH]c(=O)c3c2C)c(C)c1	8%	-6%	-27%[46.1 µM]	-6%	22%	-12%	-5.1%	8%
40	COC(=O)CCC(=O)NNC(=O)CCC(=O)Nc1cccc(Cl)c1C	-11%	-6%	10%[46.1 µM]	0%	7%	.	.	.
41	Oc1ccc(Cl)cc1Nc1nc2ccccc2n2cnnc12	.	.	?	.	-1%	.	0.4%	-2%
42	C/C(=N\Nc1cc(Cl)nc(C)n1)c1ccc(Cl)c(Cl)c1	-23%	0%	-8%	6%	12%	13%	-0.3%	?
43	Cc1nnc(NC(=O)c2ccc(F)c(S(=O)(=O)N3CCCCC3)c2)s1	?	-11%	-11%	2%	?	-17%	.	.
44	O=C(CC(c1ccccc1)c1ccccc1)Nc1ccc(C(=O)O)cc1	.	-2%	.	-1%	0%	4%	.	.
45	Cc1cc(Cl)ccc1NC(=S)NCc1ccc(Cl)cc1	-3%	-5%	0%[46.1 µM]	2%	-7%	21%	1.1%	-9%
46	CC(=O)c1sc2c(c1N)c(=O)[nH]c(=O)n2-c1ccccc1	-28%	6%	2%	2%	-14%	-5%	.	.
47	CCC1Oc2ccc(C)cc2N(CC(=O)NCCCN2CCN(Cc3ccccc3)CC2)C1=O (stereo not given)	6%	14%	?	0%	.	-11%	0.3%	7%
48	O=C(Cc1ccc(NS(=O)(=O)c2ccc(Cl)c(Cl)c2)cc1)NCCN1CCOCC1	-26%	-19%	1%	-5%	-7%	.	.	.
49	CC12CCC(C(=O)N(NC(=O)c3ccccc3Cl)C1=O)C2(C)C (stereo not given)	-1%[46.1 µM]	-16%	?	-1%	-11%	-6%	0.0%	1%
50	CC1CCN(C(=O)Cn2cc(SCC(=O)NCc3ccccc3)c3ccccc32)CC1	1%[46.1 µM]	.	.	.	-4%	.	-3.1%	0%
51	COc1ccccc1C1SCCN1S(=O)(=O)c1cccc(C(F)(F)F)c1 (stereo not given)	-1%	3%	-28%	-5%	.	-2%	-5.1%	-7%
52	COc1ccc(CNC(=O)Cn2nc(N3CCN(c4ccccc4)CC3)ccc2=O)c(OC)c1	-6%[46.1 µM]	.	.	.	-20%	.	-1.3%	?
53	Cc1cc(C)nc(SCC(=O)Nc2ccc(S(=O)(=O)NC(C)(C)C)cc2)n1	-23%	0%	?	15%[6.58 µM]	-16%	0%	3.0%	5%
